Six1-Eya2 blk = blocks human Six1 binding to Eya2. AlphaScreen GST-Six1/His-Eya2 binding, biochemical; stronger effect = lower value; control for the full effect not named in the record. activity change, % (concentration not given with the values). Q15475+O00167. 360,000 tested, 0.56% active; in the data active = activity change below about -65%; inconclusive = about -30% to -65%; inactive = above about -30%; also: % is scaled to controls: 0 for no effect and ±100 for the full control effect
Target sequence (O00167 whole entry, looked up): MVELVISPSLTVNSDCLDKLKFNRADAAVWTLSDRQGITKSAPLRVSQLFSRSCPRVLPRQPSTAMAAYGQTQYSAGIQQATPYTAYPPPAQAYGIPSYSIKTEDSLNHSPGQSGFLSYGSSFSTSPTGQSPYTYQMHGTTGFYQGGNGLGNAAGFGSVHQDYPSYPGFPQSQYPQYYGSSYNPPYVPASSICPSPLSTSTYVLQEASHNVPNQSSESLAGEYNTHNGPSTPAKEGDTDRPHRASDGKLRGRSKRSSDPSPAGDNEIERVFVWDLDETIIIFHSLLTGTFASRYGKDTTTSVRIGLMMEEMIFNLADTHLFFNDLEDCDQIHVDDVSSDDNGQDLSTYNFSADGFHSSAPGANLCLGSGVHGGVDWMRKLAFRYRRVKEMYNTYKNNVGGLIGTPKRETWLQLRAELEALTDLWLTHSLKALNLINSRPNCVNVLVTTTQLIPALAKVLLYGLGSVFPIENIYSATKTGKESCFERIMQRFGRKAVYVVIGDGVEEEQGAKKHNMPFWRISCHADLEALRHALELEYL
Target sequence (Q15475 whole entry, looked up): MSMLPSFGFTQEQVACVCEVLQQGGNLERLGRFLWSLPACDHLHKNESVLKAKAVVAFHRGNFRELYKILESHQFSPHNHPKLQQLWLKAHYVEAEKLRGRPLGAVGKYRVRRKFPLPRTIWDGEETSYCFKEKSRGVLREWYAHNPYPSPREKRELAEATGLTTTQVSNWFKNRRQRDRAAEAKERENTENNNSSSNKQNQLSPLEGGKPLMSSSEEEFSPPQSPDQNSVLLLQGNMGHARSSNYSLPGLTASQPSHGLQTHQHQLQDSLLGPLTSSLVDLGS
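AlphaScreen with GST-Six1 and His-Eya2 (5X mix: 250 nM and 500 nM), glutathione donor and nickel acceptor beads; buffer 50 mM Tris pH 8.0, 300 mM NaCl, 1 mM TCEP; 1 h at 37 C in the dark.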
PINK1 modulator = PINK1 expression modulation; 410,000 tested, 0.2% active; AID 624263; Potency, µM (top dose mostly 76.6 µM), inactives show top-dose activation (PINK1 increase), hits mostly activators; PINK1 immunofluorescence, high-content cytometry, 24 h; active = well fitted activation curve with a large enough effect; inconclusive = small, poorly fitted or top-dose-only effect; inactive = flat fitted curve, though single readings scatter; cell line not stated here;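 also: potency is read from the fitted curve at half-maximal effect; % of control where 0% means no effect; nearly all actives have a fitted effect of over 65% in size; a mitochondrial uncoupler was the plate control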
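Measures PINK1 amount and localization on or inside mitochondria by immunofluorescence. Stable cells get compounds at 5 concentrations for 24 hours before fixation and staining; CCCP controls included.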
D2 agonist = human D2 receptor agonism in beta-arrestin assay | P14416 | DiscoveRx PathHunter D2 beta-arrestin, luminescence, 90 min; 100% = 57 uM dopamine signal | 360,000 tested, 0.084% active | activation, % (test concentration not listed); in the data active = activation above about 40%; inconclusive = about 15% to 40%; inactive = below about 15%; also: compound concentration not given in the record; the text of the record calls up to 30% inactive
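DiscoveRx PathHunter D2 beta-arrestin cells (2,100/well) attached overnight, then compound-stimulated 90 min at 37 C in HBSS/10 mM HEPES/0.1% Tween-20 buffer; beta-galactosidase complementation read by luminescence after 1 h at ambient temperature. Dopamine 57 uM final (EC100) as control.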
Sfp inh = inhibitors of Bacillus subtilis Sfp phosphopantetheinyl transferase | Q9F4F7 | Biochemical Sfp PPTase activity, qHTS | Potency, µM, inactives show max response, negative = inhibition, most hits filed as inhibitors | 310,000 tested, 3.5% active; active = well fitted inhibition curve with a large enough effect; inconclusive = small, poorly fitted or top-dose-only effect, or another doubt; inactive = no such curve, though single readings can be large or run the other way;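 also: the enzyme is Sfp with the accession as filed and its product quenches rhodamine fluorescence; potency is read from the fitted curve at half-maximal effect; 0% = enzyme reaction without inhibitor and -100% = no enzyme wells; top concentration of the series not given in the record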
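Fluorescence-quenching assay with 15 nM Sfp, 5 uM rhodamine-CoA and 12.5 uM BHQ-2-labelled ybbR peptide in pH 7.6 Hepes/MgCl2 buffer. Enzyme was pre-incubated with compound for 15 min at room temperature. Rate was taken from the 30-min fluorescence change (525/598 nm).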
TRPV1 potentiator = potentiators of human vanilloid receptor 1 (TRPV1); Q8NER1; TRPV1-expressing cells, Fluo-8 calcium influx, capsaicin EC20 potentiation; host cell line not named in the record; control for the full effect not named in the record; potentiation, % at 8.33 µM; 320,000 tested, 0.02% active; AID 540277; active means potentiation above 80%; inconclusive means 30% to 80%; inactive means below 30%; also: 0% is about no effect
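Fluo-8 calcium influx in TRPV1-expressing cells, kinetic read (ex 480/em 520 nm). Compound added and read 3 min for agonist activity, followed by capsaicin at EC20 final and 2 min further read for enhancement.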
D2 PAM = positive allosteric modulators of human D2 dopamine receptor | DiscoveRx D2 beta-arrestin cells, luminescence, 90 min; 100% = 57 uM dopamine signal | potentiation, % (no concentration beside the values) | P14416 | AID 624464 | 360,000 tested, 0.23% active; active = potentiation of 50% or more; inconclusive = 30% to 50%; inactive = 30% or less;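 also: compound concentration not given in the record; tested on top of an EC20 dose of dopamine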
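PathHunter beta-arrestin assay in DiscoveRx D2 cells. Compounds were added with an EC20 of dopamine (50 nM final) for 90 min at 37 deg C. Luminescence was read 1 h after detection reagent, with 57 uM dopamine as the EC100 control.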
CtBP-E1A inh = blocks the CtBP interaction with E1A | AlphaScreen GST-E1A/His-CtBP binding, 1536-well; stronger effect = lower value; control for the full effect not named in the record | activity change, % (concentration not given with the values) | 340,000 tested, 0.49% active | AID 651724; in the data active means activity change below about -65%; inconclusive means about -30% to -65%; inactive means above about -30%; also: % is scaled to controls: 0 for no effect and ±100 for the full control effect
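Steps: dispense buffer (Tris pH 8.0, NaCl 300 mM, TCEP 1 mM, BSA, Tween 20); add 5X protein mix (GST-E1A, His-CtBP, 125 nM each); pin 23 nL compound; 2 h at 37 °C, dark; add 5X beads (50 ug/mL); 1 h; read.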
* hit, by the source's call; ? = inconclusive; / = not tested or not shown; & = joins results of further samples; [ ] = remark or other dose.

No.	molecule	Six1-Eya2 blk	PINK1 modulator	D2 agonist	Sfp inh
1	COc1ccc(C(C(=O)NC2CCCCC2)N(C(=O)CCl)c2ccc(OC)cc2)cc1 (stereo unspecified)	8	-2.1%	-3.3	15%
2	COc1cc(NC(=S)N2CCN(Cc3ccccc3)CC2)cc(OC)c1	8	-0.7%	-3.2	9%
3	Cc1cccc(C2=NN(c3ccccc3)[C@@H](C(=O)N3CCOC3=O)[C@@H]2c2ccccc2)c1	12	1.1%	-0.9	4%
4	Cc1cccc(NCc2n[nH]c(=S)n2-c2ccccc2)c1	24	-0.7%	-3.9	?
5	O=C(CN1CCN(c2ccc(F)cc2)CC1)Nc1nnc(-c2ccccc2)s1	-4	-0.5%	-1.0	17%
6	CCCCCCSc1ccc([C@H]2N[C@@](C)(C(=O)OC)[C@H]3C(=O)N(CC)C(=O)[C@@H]23)cc1	-4	3.7%	-2.6	/
7	CCn1c(CNC(=O)Cc2ccc(OC)cc2)nnc1SCCOc1ccccc1	-3	-1.6%	5.8	6%
8	CCOCCCNC(=O)CN1C(=O)COc2ccc(S(=O)(=O)N3CCCC3)cc21	6	0.0%&0.2%	-0.7	2%

No.	TRPV1 potentiator	D2 PAM	CtBP-E1A inh
1	-1	-3	6
2	-1	-28	2
3	/	/	17
4	7	-8	/
5	2	-1	-2
6	-23	-7	1
7	4	25	0
8	4	-2	/

(continued)
No.	molecule	Six1-Eya2 blk	PINK1 modulator	D2 agonist	Sfp inh
9	Cc1cc(C)c(Cn2cnc3ccccc32)c(C)c1	-9	6.3%	-1.0	6%
10	COc1ccc(NC(=O)c2cccs2)cc1C(=O)N1CCN(c2ccccc2)CC1	-7	15%	-3.1	23%
11	CCCN1CNC(=S)N(c2ccccc2C)C1	30	2.3%	-5.2	3%
12	O=C(CN1CCC(n2nnc3cc(F)ccc32)CC1)Nc1ccccc1N1CCOCC1	-3	2.5%[38.3 µM]	0.3	-3%
13	COc1ccc([C@H]2N[C@]3(CCCN(Cc4ccccc4)C3=O)[C@H]3C(=O)N(C)C(=O)[C@@H]23)cc1	3	1.4%	0.1	/
14	CCC(CC)C(=O)Nc1cc(NC(=O)C(CC)CC)cc(C(=O)O)c1	2	0.3%	-2.2	13%
15	COc1ccc(CN=C2NC(=O)CC(C(=O)Nc3ccc(Cl)cc3)S2)cc1 (stereo unspecified)	3	-0.2%	-5.4	24%
16	COc1ccc(S(=O)(=O)NCC2CCC(C(=O)NCCCN3CCCC3=O)CC2)cc1 (stereo unspecified)	5	-0.4%	-3.8	0%

No.	TRPV1 potentiator	D2 PAM	CtBP-E1A inh
9	-3	-3	-5
10	1	-11	-1
11	7	-15	23
12	-11	-15	6
13	/	/	3
14	-24	-5	0
15	7	-7	1
16	9	-7	-5

Some of these compounds in order of SMILES length, ascending.
No.	molecule	Six1-Eya2 blk	PINK1 modulator	D2 agonist	Sfp inh
11	CCCN1CNC(=S)N(c2ccccc2C)C1	30	2.3%	-5.2	3%
9	Cc1cc(C)c(Cn2cnc3ccccc32)c(C)c1	-9	6.3%	-1.0	6%
14	CCC(CC)C(=O)Nc1cc(NC(=O)C(CC)CC)cc(C(=O)O)c1	2	0.3%	-2.2	13%
15	COc1ccc(CN=C2NC(=O)CC(C(=O)Nc3ccc(Cl)cc3)S2)cc1 (stereo unspecified)	3	-0.2%	-5.4	24%
10	COc1ccc(NC(=O)c2cccs2)cc1C(=O)N1CCN(c2ccccc2)CC1	-7	15%	-3.1	23%
8	CCOCCCNC(=O)CN1C(=O)COc2ccc(S(=O)(=O)N3CCCC3)cc21	6	0.0%&0.2%	-0.7	2%
16	COc1ccc(S(=O)(=O)NCC2CCC(C(=O)NCCCN3CCCC3=O)CC2)cc1 (stereo unspecified)	5	-0.4%	-3.8	0%
6	CCCCCCSc1ccc([C@H]2N[C@@](C)(C(=O)OC)[C@H]3C(=O)N(CC)C(=O)[C@@H]23)cc1	-4	3.7%	-2.6	/
13	COc1ccc([C@H]2N[C@]3(CCCN(Cc4ccccc4)C3=O)[C@H]3C(=O)N(C)C(=O)[C@@H]23)cc1	3	1.4%	0.1	/

No.	TRPV1 potentiator	D2 PAM	CtBP-E1A inh
11	7	-15	23
9	-3	-3	-5
14	-24	-5	0
15	7	-7	1
10	1	-11	-1
8	4	-2	/
16	9	-7	-5
6	-23	-7	1
13	/	/	3

Later entries
No.	molecule	Six1-Eya2 blk	PINK1 modulator	D2 agonist	Sfp inh
17	Nc1ccn(CC(=O)NCc2ccc3[nH]ccc3c2)c(=O)n1	9	1.8%	-4.0	/
18	Cc1ccc(Nc2nc(=O)c3cc([N+](=O)[O-])ccc3s2)cc1	19	1.1%	-2.1	1%
19	S=C(c1ccc(-c2cc(Cl)ccc2Cl)o1)N1CCOCC1	?	5.0%	-0.9	25µM*
20	O=C(NNS(=O)(=O)c1cccc(Cl)c1)c1cc(-c2ccc(F)cc2)nc2ccccc12	-2	0.1%	-1.7	?
21	CC(=O)/C(N=Nc1ccc(C(=O)O)cc1[N+](=O)[O-])=C(\C)O	-6	-0.3%	-18	-5%
22	COc1ccc(C(CNC(=O)/C=C/c2c(Cl)nc3ccccn23)N(C)C)cc1 (stereo unspecified)	-2	-0.6%	-1.0	-10%
23	Cc1sc2nc(CSCC(=O)Nc3ccc(Cl)cc3F)[nH]c(=O)c2c1C	-5	2.8%	-4.6	/
24	CCCc1cc(=O)oc2cc(OCC(=O)NCCc3ccc(S(N)(=O)=O)cc3)ccc12	-3	-1.1%	-1.5	15%

No.	TRPV1 potentiator	D2 PAM	CtBP-E1A inh
17	7	-5	7
18	-12	-10	/
19	-9	-3	?
20	6	-9	-2
21	-8	-11	/
22	8	-14	13
23	-11	14	1
24	-12	-9	-6

The list continues.
No.	molecule	Six1-Eya2 blk	PINK1 modulator	D2 agonist	Sfp inh
25	CCCCOC(=O)CSCC(=O)N1N=C(c2cccs2)CC1c1ccc(F)cc1 (stereo unspecified)	8	-1.5%	0.0	-14%
26	CCn1c(C)nc2cc(C(=O)OC)ccc21	0	-1.5%	-0.1	17%
27	CCOC(=O)c1c(C)oc2c1c1c(c3ccccc32)OCN(CCCC(=O)O)C1	-1	1.9%	4.4	-6%
28	CCC(CC)C(=O)Nc1c(C(=O)N2CCN(c3ccccc3)CC2)oc2ccccc12	-9	2.6%&-1.1%	-2.9	4%
29	COc1cccc(C(C(=O)NC2CCCCC2)N(C(=O)Cc2cccs2)c2ccc(-n3cnnn3)c(OC)c2)c1 (stereo unspecified)	-2	?	-0.6	15%
30	CCCn1nnc(NC(=O)c2ccc(OCC)c(Cl)c2)n1	-1	0.7%[38.3 µM]	1.1	4%
31	C=C(C)CSc1nnc([C@@H](NC(=O)OC(C)(C)C)C(C)CC)o1 (stereo partly specified)	21	0.8%	-2.4	4%
32	CS(=O)(=O)N1CCC(Oc2ccccc2C(=O)NC2CCOC2)CC1 (stereo unspecified)	-2	-0.3%	-1.6	26%

No.	TRPV1 potentiator	D2 PAM	CtBP-E1A inh
25	-5	-8	3
26	-2	-9	4
27	/	6	-15
28	-22	-8	/
29	3	-7	0
30	5	-9	-3
31	-21	3	6
32	-5	-4	4

Continuation.
No.	molecule	Six1-Eya2 blk	PINK1 modulator	D2 agonist	Sfp inh
33	Cc1occc1C(=O)NNC(=O)c1ccccc1Br	1	0.3%	-1.9	-3%
34	CN(C)c1nc(N)nc(-c2ccco2)n1	-4	2.1%	-2.1	15%
35	CCCc1cc(C(=O)N2CCCC(C(=O)c3ccc(Cl)cc3)C2)n(C)n1 (stereo unspecified)	3	0.0%	0.7	7%
36	CC(=O)Nc1cccc(NC(=O)C2CC(=O)N(C3CCCCC3)C2)c1 (stereo unspecified)	6	1.1%	0.4	-23%
37	CC(C)(C)C(=O)OCc1nc(-c2ccc(C(F)(F)F)cc2)cs1	10	14%	-1.1	-4%
38	COC(=O)c1cc(S(=O)(=O)NCCc2cccc(C)c2)cn1C	5	2.8%	0.6	-12%
39	CCc1nnc(NC(=O)C2CCCN2C(=O)NC2CCCCC2)s1 (stereo unspecified)	6	-0.9%	-1.5	14%
40	Cc1cc2cc3c(=O)[nH]c(=O)nc-3n(CC(O)C(O)C(O)CO)c2cc1C (stereo unspecified)	1	1.6%	-2.4	/

No.	TRPV1 potentiator	D2 PAM	CtBP-E1A inh
33	4	-6	4
34	2	-10	1
35	-17	-7	2
36	2	4	-3
37	-1	0	1
38	8	3	-17
39	-6	1	-3
40	/	-21	-3

Later entries.
No.	molecule	Six1-Eya2 blk	PINK1 modulator	D2 agonist	Sfp inh
41	O=S(=O)(Nc1nc2ccccc2nc1NCCN1CCOCC1)c1cccc(Cl)c1	0	-2.9%	-3.0	16%
42	Cc1ccc(COC(=O)CCN=C2NS(=O)(=O)c3ccccc32)cc1	0	1.5%	-2.0	/
43	CCOc1ccc(CCNS(=O)(=O)c2ccc3c(c2)NC(=O)CC(=O)N3)cc1OCC	8	-1.1%	1.4	-9%
44	O=C(NNC(=O)C1CCCCC1)c1cnccn1	-5	2.2%[38.3 µM]	0.7	?
45	O=C(Nc1ccn(Cc2cccc3ccccc23)n1)c1cccnc1	-2	0.3%	-2.8	13%
46	COc1ccc(C2CC(=O)c3cnc(NC(=O)c4cccc(OC)c4)nc3C2)cc1 (stereo unspecified)	-11	-2.6%[38.3 µM]	0.3	-2%
47	Cc1[nH]n(-c2ccccc2)c(=O)c1N=Nc1ccc2c(c1)OCO2	16	2.1%	-1.4	-1%
48	COc1ccc(C2(CNC(=O)Cc3ccc(OC)c(OC)c3)CCOCC2)cc1	3	3.1%	-1.6	20%

No.	TRPV1 potentiator	D2 PAM	CtBP-E1A inh
41	16	1	0
42	-9	5	10
43	7	-13	/
44	12	-5	-7
45	6	-3	0
46	21	-1	-8
47	-1	7	0
48	-11	3	3

Going on with the list:
No.	molecule	Six1-Eya2 blk	PINK1 modulator	D2 agonist	Sfp inh
49	COc1ccc(C(=O)Nc2ccc(C(=O)N3CCCCC3C)cc2)c(OC)c1OC (stereo unspecified)	-3	0.7%	7.1	17%
50	CC(C)(C)C(=O)Cn1ncc(NC2CC2)c(Br)c1=O	-1	1.9%	0.4	9%
51	CC1C(=O)C(C)C(c2cc(Cl)ccc2O)NC1c1cc(Cl)ccc1O (stereo unspecified)	2	-1.8%	-5.1	?
52	COc1ccc(/C=C2\COc3ccccc3C2=O)cc1OC	-16	-4.1%	0.7	-20%

No.	TRPV1 potentiator	D2 PAM	CtBP-E1A inh
49	0	0	-17
50	26	-13	-1
51	8	4	6
52	4	5	0
